T cruzi repl: inhibitors of intracellular T. cruzi growth, primary screen, luminescence, NIH3T3 host cells; inhibition, % (test concentration not listed); 300,000 tested, 1.4% active; AID 1885, 2009; T. cruzi beta-gal in NIH3T3, 90 h;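 active means mean inhibition across valid replicates above about 55%, limit read from the data; inconclusive means mean below that limit but half or more replicates reach it; inactive means mean below it, under half of replicates reach it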;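 further: signal also drops with host cell toxicity which is not excluded here; 0% = plate median of DMSO wells and 100% = zero luminescence signal; higher percent means less beta-gal luminescence so fewer parasites; stock transfer was 50 nL into about 50 µL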
Beta cell apopt: inhibitors of cytokine-induced beta cell apoptosis, primary screen, luminescence. INS-1E cytokine-induced death, ATP luminescence, 48 h; percent of positive-control rescue, neutral wells zero. protection from apoptosis, % (concentration not given with the values). 300,000 tested, 0.8% active;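 active means all replicates at 75% or more, or half of them and the mean; inconclusive means half reach 75% but not the mean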;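 further: 0% = cytokine-treated negative control wells and 100% = positive control rescue; higher means more ATP so stronger rescue from cytokine killing; wells of about 40 µL received 100 nL stock; the first replicate is given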
Ecoli rRNA inh: reduced GFP signal of wild-type E. coli, primary screen, bacterial rRNA inhibitor project, GFP/RFP fluorescence, OD600, single point; 350,000 tested, 1.6% active; GFP signal change (wild-type ribosome), % (concentration not given with the values); E. coli WT GFP vs humanized-ribosome RFP mutants, 24 h; stronger effect = lower value; DMSO median 0, no signal -100;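 active means significant combined selectivity score with lowered wild-type GFP, culture density cut under 30%, mutant RFP and density less affected; inactive means any of these conditions unmet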; further: one replicate is shown; some compounds called inactive have numbers as strong as hits
ALR inh: inhibitors of human ALR sulfhydryl oxidase, primary screen, biochemical, H2O2 detection, HRP-luminol luminescence, single point; FAD-linked sulfhydryl oxidase ALR (Homo sapiens), P55789; purified ALR, DTT oxidation; inhibition, % (no concentration beside the values); 290,000 tested, 3.8% active; AID 485317, 2010;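 active means mean and each replicate at 75% or more; inconclusive means only one of the two met; inactive means neither met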;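 further: stock transfer was 7.5 nL into about 7.5 µL; 0% = neutral wells and 100% = wells with inactivated enzyme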
Target sequence (P55789 whole entry, looked up): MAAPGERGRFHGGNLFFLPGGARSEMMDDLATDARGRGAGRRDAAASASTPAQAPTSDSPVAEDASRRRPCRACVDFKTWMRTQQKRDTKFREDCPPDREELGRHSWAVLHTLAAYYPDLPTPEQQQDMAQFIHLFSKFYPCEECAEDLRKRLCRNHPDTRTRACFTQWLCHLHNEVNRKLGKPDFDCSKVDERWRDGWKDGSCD
FGF22 binding: binders of human FGF22 protein, primary screen, FGF22 synaptogenesis inhibitor project, biophysical, thermal shift, single point; Fibroblast growth factor 22 (Homo sapiens), Q9HCT0; recombinant FGF22 thermal shift, SYPRO orange fluorescence; percent of sucrose octasulfate shift, DMSO zero; calls only at 9.99 µM; 340,000 tested, 1.5% active; AID 651658, 2012;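 active means melting point raised past a set limit in the mean and every replicate; inconclusive means no clear call; three in four hits are not shown here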
Target sequence (Q9HCT0 whole entry, looked up): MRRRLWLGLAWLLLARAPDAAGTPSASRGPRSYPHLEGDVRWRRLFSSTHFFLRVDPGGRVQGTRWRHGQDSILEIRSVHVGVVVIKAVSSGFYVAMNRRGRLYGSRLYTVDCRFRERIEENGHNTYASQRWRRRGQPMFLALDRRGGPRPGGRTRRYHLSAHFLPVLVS
RanGTP-Impb inh: inhibitors of RanGTP-importin-beta interaction, primary screen, biochemical, FRET, CFP-Ran, YFP-importin-beta, homogeneous | Ran GTPase (GTP-bound) - importin-beta complex | cell-free CFP-Ran/YFP-importin-beta FRET ratio | inhibition, % (no concentration beside the values) | 300,000 tested, 1.1% active | AID 2216, 2009;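 active means most replicates above 15%; inconclusive means exactly half above 15%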;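 further: 0% = DMSO wells and 100% = Ran loaded with GDP instead of GTP; wells of about 40 µL received 100 nL stock; the first replicate is given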
Calb FLC: C. albicans growth inhibition with fluconazole, primary screen, CaCi-2 strain, Alamar Blue fluorescence; C. albicans CaCi-2 (fluconazole-resistant clinical isolate) + fluconazole, 48 h; growth inhibition, % (no concentration beside the values); 300,000 tested, 0.57% active; AID 1979, 2009;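 active means most replicates above 75%; inconclusive means exactly half above 75%; inactive means most below 75%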;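 further: all wells also contain fluconazole at 8 µg/ml as a sub-toxic cotreatment; 0% = median of DMSO wells and 100% = median of geldanamycin control wells; wells of about 8 µL received 7.5 nL stock; the first replicate is given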
AF4-AF9 inh: inhibitors of AF4 peptide binding to AF9, primary screen, biochemical, AlphaScreen, biotin-AF4 peptide, FLAG-AF9, single point; inhibition, % at 10 µM; Protein AF-9 (Homo sapiens), P42568; 350,000 tested, 0.47% active;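 active means every replicate reaching a set inhibition limit, whatever the replicate mean, cut at about 25% in these data; inconclusive means mean inhibition reaches that limit but some replicates miss it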;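 further: 0% = plate neutral control median and 100% = total signal loss; the record names both 10 and 1 µM as test concentration; the first replicate is given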
Target sequence (P42568 whole entry, looked up): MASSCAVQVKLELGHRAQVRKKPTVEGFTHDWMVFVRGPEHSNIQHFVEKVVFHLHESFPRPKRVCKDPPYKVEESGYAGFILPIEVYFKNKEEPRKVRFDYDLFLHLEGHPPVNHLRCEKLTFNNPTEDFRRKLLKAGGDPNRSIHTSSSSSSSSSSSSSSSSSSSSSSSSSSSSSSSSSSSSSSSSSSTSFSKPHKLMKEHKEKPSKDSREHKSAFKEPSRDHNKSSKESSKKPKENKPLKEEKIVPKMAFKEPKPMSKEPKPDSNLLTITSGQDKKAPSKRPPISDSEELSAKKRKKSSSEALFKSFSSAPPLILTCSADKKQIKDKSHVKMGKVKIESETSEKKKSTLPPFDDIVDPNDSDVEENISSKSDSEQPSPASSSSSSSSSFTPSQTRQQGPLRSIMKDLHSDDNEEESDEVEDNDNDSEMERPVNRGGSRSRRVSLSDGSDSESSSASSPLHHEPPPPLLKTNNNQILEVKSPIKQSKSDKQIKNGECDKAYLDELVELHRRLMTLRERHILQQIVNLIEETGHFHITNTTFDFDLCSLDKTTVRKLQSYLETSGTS
Ecoli rRNA inh OD600: further read-out of Ecoli rRNA inh, marked with its call; OD600 change, %; measured here: OD600 growth;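 optical density of the mix in the first replicate; 0 = DMSO median and -100 = no signal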
Ecoli rRNA inh RFP: also measured in Ecoli rRNA inh; calls as there; RFP signal change, %; measured here: RFP humanized mutant strains;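 first replicate; 0 = DMSO median and -100 = no signal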
* marks the source's active call; other numbers are inactive results; i = inactive; ? = inconclusive; . = not tested or not shown; & = joins results of further samples.

Start of the listing, in advance, two compounds:
SMILES	T cruzi repl	Beta cell apopt	Ecoli rRNA inh	Ecoli rRNA inh OD600	Ecoli rRNA inh RFP	ALR inh	FGF22 binding	RanGTP-Impb inh	Calb FLC	AF4-AF9 inh
Cc1ccc(NC(=O)C2=CCN(S(=O)(=O)c3ccc(F)cc3)CC2)cc1	9	.	6	4	1.1	66	i	-0.2	-1	-44
COc1ccccc1CNC(=O)COC(=O)CSc1ccc(F)cc1	-14	-5	4	1	-0.6	-4	i	2.7	2	-14

The list itself, previewed entries included:
SMILES	T cruzi repl	Beta cell apopt	Ecoli rRNA inh	Ecoli rRNA inh OD600	Ecoli rRNA inh RFP	ALR inh	FGF22 binding	RanGTP-Impb inh	Calb FLC	AF4-AF9 inh
Cc1ccc(NC(=O)C2=CCN(S(=O)(=O)c3ccc(F)cc3)CC2)cc1	9	.	6	4	1.1	66	i	-0.2	-1	-44
COc1ccccc1CNC(=O)COC(=O)CSc1ccc(F)cc1	-14	-5	4	1	-0.6	-4	i	2.7	2	-14
CC(C)=CCC/C(C)=C/CCC(C)NCCN1CCNCC1 (stereo not given)	20	7	.	.	.	-7	.	0.6	-10	.
CSCCC(NC(=O)c1ccccc1Cl)C(=O)N1CCN(C(C)=O)CC1 (stereo not given)	.	-1	12	17	-1.8	.	i	.	.	0.1
O=[N+]([O-])c1cccc(/C=C/c2nc[nH]c2[N+](=O)[O-])c1	-6	11	4	0	-1.5	0	i	-3.9	6	3.8
CSc1ccc(CN(C)CC(=O)Nc2ccc(NC(C)=O)cc2)cc1	-1	3	4	4	-1.3	-6	i	-0.2	-20	1.8
O=C(CN1CCN(C(=O)c2ccco2)CC1)N1CCc2[nH]c3ccccc3c2C1	13	-5	.	.	.	-32	.	29*	10	.
CCCCC1(c2ccc(F)cc2)NC(=O)N(CC(=O)N2CCN(C(=O)c3ccco3)CC2)C1=O (stereo not given)	0	.	10	4	1.2	1	i	-1.9	-6	-0.4
OCC1(CCc2ccccc2)CCN(Cc2ccccc2Cl)CC1	23	1	0	-2	3.1	-17	i	0.8	18	-2.4
O=[N+]([O-])c1ccc2n[nH]nc2c1	-4	1	.	.	.	-5	.	1.1	-9	.
O=S1(=O)N=C(c2ccccc2)c2ccccc21	1	.	-3	3	-1.4	-3	i	0.7	-12	-0.3
COc1ccc(NC(=O)c2ccc3c(c2)C(=O)N(Cc2cccnc2)C3=O)cc1	-2	3	18	16	1.5	-13	.	2.8	-2	.
O=C(CCC(=O)c1cccs1)NCc1ccccc1Cl	.	1	-2	3	6.5	-7	i	.	.	1.6
Cc1ccc(C(=O)Nc2nc(-c3ccccn3)cs2)cc1S(=O)(=O)N1CCOCC1	.	90*	-7	-10	27	-6	i	.	.	2.9
COc1cc(C(C)=O)ccc1OCC(O)CN1CCN(c2ccccn2)CC1 (stereo not given)	11	-5	3	-5	-3.3	2	.	2.1	5	-3.8
O=c1c[n+]([O-])c2ccccc2n1OCc1ccccn1	-10	-2	.	.	.	0	.	-4.6	-5	.
Cc1ccc(NC(=O)Cc2nc(-c3c[nH]c(C(=O)N4CCCC4)c3)cs2)c(C)c1	.	10	.	.	.	98*	i	.	.	3.8
CC(C)CN(C(=O)COC(=O)c1c(Cl)ccc(Cl)c1Cl)C1CCS(=O)(=O)C1 (stereo not given)	14	-4	-8	-10	2.1	-60	i	-1.1	-3	0.1
O=C1c2ccccc2-c2cccc(C(=O)N3CCN(C(=O)c4ccccc4)CC3)c21	1	-2	1	-5	-0.6	11	i	0.1	15	1.7
COC(=O)c1sc2ncccc2c1OCc1ccc(Cl)cc1Cl	13	-6	.	.	.	.	.	0.6	-3	.
O=C(CCCCCC(=O)N(CCO)CCO)N(CCO)CCO	-8	-3	.	.	.	-4	.	1.6	-4	.
CCOc1ccc(-n2c(=O)c3c4c(sc3n(CC(=O)NCC3CCCO3)c2=O)CCCC4)cc1 (stereo not given)	34	-4	14	6	-1.6	.	i	-0.5	-6	-1.7
CC1=NN(C(=O)Cc2ccc([N+](=O)[O-])cc2)C(O)(c2ccccc2)C1 (stereo not given)	-3	1	.	.	.	0	.	-3.1	2	.
COc1ccc(S(=O)(=O)Nc2cccnc2)c(C)c1C	4	-8	8	9	1.0	4	i	11	-3	1.0
COC(=O)c1ccccc1NC(=O)C1CCCC1	-3	-3	.	.	.	-7	.	2.5	-3	.
COC(=O)C1=C(C)N(CCCC(=O)O)C(=O)NC1c1ccc(C(F)(F)F)cc1 (stereo not given)	10	-6	11&3	8&5	-0.9&2.0	-6	i	?	-9	-39
O=C1CC(c2ccccc2)CC(=O)N1c1ccccc1	5	-12	23	5	-0.1	-2	i	0.3	-2	-1.7
CC(=O)c1ccccc1OC(=O)c1ccc([N+](=O)[O-])o1	-1	-2	9	1	-2.8	-24	i	-1.6	1	1.2
CCNC(=O)O/N=C(\C)c1sc(-c2ccccc2)nc1C	20	4	.	.	.	-2	.	-2.9	3	.
COc1ccc(CNc2nc(C)cc(C)c2C#N)cc1	-2	-1	-3	-1	1.7	2	i	6.4	17	-13
Cc1ccc(NS(=O)(=O)c2ccc3[nH]c(=O)[nH]c3c2)cc1	-14	-1	9	-1	3.2	.	i	9.9	9	-0.6
COc1ccc(OCC(O)CN(C)C(=O)/C=C/c2cccc([N+](=O)[O-])c2)cc1 (stereo not given)	-5	3	0	1	-0.8	-2	i	?	11	-1.8
Nc1nc(SCCN2C(=O)c3ccccc3C2=O)n[nH]1	-3	4	11	9	1.7	-1	.	0.8	-4	.
COc1ccc(Cl)cc1NC(=O)N1CCN(CCc2ccccc2)CC1	16	2	-22	-26	4.9	-3	i	-3.1	4	4.2
O=C(CCC(=O)Nc1cccc2ccccc12)N/N=C/c1ccco1	-12	-6	8	7	-1.5	-28	i	1.7	18	0.3
O=C(O)CCc1ccc(-c2ccc(F)cc2)n1CCC(=O)O	-8	.	.	.	.	15	.	-3.8	19	.
O=C(Nc1cc(C(=O)N2CCCC2)ccc1N1CCCC1)c1ccccc1F	-10	3	.	.	.	1	.	-2.2	20	.
COc1ccccc1N(CC(O)CN1CCC(C)CC1)S(=O)(=O)c1ccccc1 (stereo not given)	17	0	11	16	0.1	-4	i	2.1	-12	3.0
Cc1ccccc1CSc1ccc2nnc(-c3ccccn3)n2n1	2	0	15	3	1.7	-11	i	6.2	2	0.4
COc1ccc(CCNc2ccc(C(CC(N)=O)NC(=O)c3cc(OC)ccc3OC)cc2[N+](=O)[O-])cc1 (stereo not given)	8	-8	-7	-7	-3.7	-1	i	1.6	-11	10
O=C(CCNS(=O)(=O)c1ccc(Br)cc1)NC1CCC(O)CC1 (stereo not given)	.	-3	4	-2	-2.8	-6	i	.	.	-1.6
CC1CCCC(C)N1C(=O)COC(=O)Cc1ccc(Cl)cc1 (stereo not given)	-2	1	7	5	-1.7	-5	i	-0.8	-19	0.4
CCCC[C@H]1COCCS(=O)(=O)N1Cc1ccc(C)cc1	2	1	-4	0	17	1	i	2.1	-2	-0.2
CC1=NN(c2ccccc2)C(=O)/C1=C/c1ccc[nH]1	-4	0	.	.	.	29	.	-1.4	10	.
Cc1ccc(-c2cn(-c3ccc(SC(F)F)cc3)c3[n+]2CCC3)cc1	29	82*	.	.	.	-5	.	3.1	-14	.
Cc1cc(C)nc(NC(=O)C(C)N2C(=O)c3ccccc3C2=O)n1 (stereo not given)	-3	-8	.	.	.	-11	.	0.8	22	.
O=C(CN1C(=O)NC2(CCCC2)C1=O)NCCC1=CCCCC1	-6	-5	.	.	.	3	.	-3.2	-10	.
CC(O)CC(C)O (stereo not given)	.	2	3	2	-0.9	3	i	.	.	.

4 compounds from above, arranged by their value in Ecoli rRNA inh RFP, lowest first:
molecule	Ecoli rRNA inh	Ecoli rRNA inh OD600	Ecoli rRNA inh RFP	ALR inh	RanGTP-Impb inh	AF4-AF9 inh
COc1ccc(CCNc2ccc(C(CC(N)=O)NC(=O)c3cc(OC)ccc3OC)cc2[N+](=O)[O-])cc1 (stereo not given)	-7	-7	-3.7	-1	1.6	10
CC(O)CC(C)O (stereo not given)	3	2	-0.9	3	.	.
COc1ccccc1N(CC(O)CN1CCC(C)CC1)S(=O)(=O)c1ccccc1 (stereo not given)	11	16	0.1	-4	2.1	3.0
CCCC[C@H]1COCCS(=O)(=O)N1Cc1ccc(C)cc1	-4	0	17	1	2.1	-0.2

Next section:
SMILES	T cruzi repl	Beta cell apopt	Ecoli rRNA inh	Ecoli rRNA inh OD600	Ecoli rRNA inh RFP	ALR inh	FGF22 binding	RanGTP-Impb inh	Calb FLC	AF4-AF9 inh
O=C(/C=C/c1ccc(S(=O)(=O)N2CCOCC2)cc1)N(CCO)Cc1ccccc1	-8	-9	13	11	6.1	-16	i	-0.5	-3	-5.3
O=C(NC(=S)Nn1cnnc1)c1ccc(F)cc1Cl	-7	.	6	3	-0.4	3	i	-3.3	3	-3.3
Cc1ccccc1Nc1c([N+](=O)[O-])cncc1[N+](=O)[O-]	0	-4	7	4	-0.7	-18	i	0.1	-14	-5.1
Cc1ccc(OC(=O)NC2CCS(=O)(=O)C2)cc1C (stereo not given)	-10	-10	10	-1	-1.4	2	i	0.1	-17	0.4
CCCCS(=O)(=O)Nc1ccc2c(c1)ncn2C1CCCCC1	-3	-3	7	-5	2.5	-1	i	-2.7	-37	-3.5
Cc1nnc(SCC(=O)NCc2cccs2)[nH]c1=O	-18	.	.	.	.	-6	.	-1.5	0	.
CC(C)Oc1cccc(C(=O)Nc2ccc(Br)cc2F)c1	8	-7	-18	-12	-20	-16	i	-0.7	-7	1.8
Clc1ccc(C#Cc2cccnc2)cc1	-24	0	5	7	-12	1	i	-5.0	-9	1.7
O=c1cc(CN2CCN(c3ccccc3O)CC2)nc2sccn12	-3	-6	.	.	.	99*	.	14	3	.
Cc1ccc(NC(=O)C2CCCN(S(=O)(=O)c3c(C)noc3C)C2)cc1 (stereo not given)	2	-3	5	10	-0.2	1	i	2.4	14	-2.1

ALR inh, what is marked active above.
Molecule,Ecoli rRNA inh,Ecoli rRNA inh OD600,Ecoli rRNA inh RFP,ALR inh,RanGTP-Impb inh,AF4-AF9 inh
Cc1ccc(NC(=O)Cc2nc(-c3c[nH]c(C(=O)N4CCCC4)c3)cs2)c(C)c1,.,.,.,98*,.,3.8
O=c1cc(CN2CCN(c3ccccc3O)CC2)nc2sccn12,.,.,.,99*,14,.

A portion of the library. The share of hits here may be higher or lower than overall.
